Source: PubChem BioAssay
Rango release inh – inhibition of RanGTP-driven Rango-importin beta dissociation. O95149+P62826. AID 540253. Biochemical FRET Rango-importin beta, RanGTP-induced dissociation. Potency, µM (highest dose often 46.1 µM), without a hit: at the top dose activity change, negative = inhibition. hit rate 0.071% among 340,000; active means falling FRET ratio curve, often poorly fitted, with flat reads before Ran was added; inconclusive means other falling curves, or compound fluorescence or quenching; inactive means flat or rising ratio curve;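 also: potency is read from the fitted curve at half-maximal effect; % of control where 0% means no effect; nearly all actives have a fitted effect of over 45% in size; -100% = wells without RanGTP and RCC1; the record marks most hits as doubtful in a second field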
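Compounds sat 5 min at room temperature with 0.1 uM Rango biosensor plus 0.25 uM importin beta, then FRET pre-read. RanGTP-RCC1 (0.6 uM Ran, 2mM GTP, 0.2 uM RCC1) added for 45 min, and the CFP/YFP post-read measured blocked complex dissociation.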
miR-21 FLuc – miR-21 reporter, rising signal. HeLa miR-21 FLuc reporter, luciferase, 48 h. Potency, µM (doses to about 38.3 µM), without a hit: top-dose reporter change, positive = more light. 340,000 tested, under 10 active. AID 2288; active = well fitted rising curve with a large enough effect; inconclusive = small, poorly fitted or top-dose-only effect; inactive = no such curve, though single readings can be large or run the other way;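 also: % of control where 0% means no effect; miR-21 action dims this reporter so a rising signal means less miR-21 action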
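Using DMEM plus 10% FBS, HeLa miR-21-FLuc cells are incubated with test compounds (final up to about 40uM) for 48 hours; firefly luciferase signal is then imaged following reagent-mediated lysis.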
GLA inh pH 4.5 – inhibitors of human alpha-galactosidase A at pH 4.5; purified enzyme, 4-MU-alpha-Gal fluorescence, pH 4.5; activity change, negative = inhibition, % at 105 µM; 230,000 tested, under 10 active; inconclusive = small, poorly fitted or top-dose-only inhibition, or a rising curve; inactive = flat fitted curve, though single readings scatter; no compound was filed as active;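 also: 0% = full activity with enzyme and -100% = basal without enzyme; dose as in the result columns while the protocol names 77 µM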
Rango-impB inh – Rango-importin beta binding inhibition. Potency, µM (highest dose often 92.2 µM), for inactives: top-dose inhibition of complex formation. Rango CFP/YFP FRET sensor + importin beta, 45 min. AID 540263. hit rate 0.031% among 340,000; active = rising FRET ratio curve, often small or poorly fitted; inconclusive = mostly compound fluorescence or quenching in the first reads; inactive = flat curves in all reads;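 also: potency is read from the fitted curve at half-maximal effect; 0% = DMSO wells and 100% = buffer wells lacking importin beta; nearly all actives have a fitted effect of over 15% in size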
Target sequence (Q14974 whole entry, looked up): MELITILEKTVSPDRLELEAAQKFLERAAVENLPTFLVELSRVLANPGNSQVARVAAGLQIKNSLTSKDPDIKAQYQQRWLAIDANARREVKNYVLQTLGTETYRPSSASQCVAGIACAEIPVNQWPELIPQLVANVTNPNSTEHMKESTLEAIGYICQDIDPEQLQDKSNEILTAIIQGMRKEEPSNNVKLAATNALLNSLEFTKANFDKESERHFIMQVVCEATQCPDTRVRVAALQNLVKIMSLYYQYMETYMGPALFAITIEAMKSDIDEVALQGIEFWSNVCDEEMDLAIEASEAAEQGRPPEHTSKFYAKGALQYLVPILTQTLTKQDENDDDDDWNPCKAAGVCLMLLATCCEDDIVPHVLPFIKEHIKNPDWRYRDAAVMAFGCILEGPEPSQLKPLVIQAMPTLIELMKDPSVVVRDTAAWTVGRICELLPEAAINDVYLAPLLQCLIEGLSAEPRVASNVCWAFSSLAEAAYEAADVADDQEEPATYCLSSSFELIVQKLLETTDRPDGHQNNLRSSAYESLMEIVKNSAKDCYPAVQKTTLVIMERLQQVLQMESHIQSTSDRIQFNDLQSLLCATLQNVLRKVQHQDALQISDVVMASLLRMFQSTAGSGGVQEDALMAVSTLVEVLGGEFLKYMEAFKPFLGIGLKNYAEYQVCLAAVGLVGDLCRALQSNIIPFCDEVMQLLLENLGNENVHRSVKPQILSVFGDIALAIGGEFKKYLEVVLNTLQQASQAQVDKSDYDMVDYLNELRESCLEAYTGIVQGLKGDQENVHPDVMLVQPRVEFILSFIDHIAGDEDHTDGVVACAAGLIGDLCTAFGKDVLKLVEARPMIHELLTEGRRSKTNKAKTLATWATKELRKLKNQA
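Inhibition scored from the CFP 486 nm/YFP 530 nm FRET ratio 45 min after adding 0.125 microM importin beta to 50 nM Rango biosensor preincubated 5 min with compound (room temperature, PBS with DTT, Tween-20, BSA). No-importin wells as positive control.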
Starred values were filed as active, the others as inactive; ? = inconclusive; . = not tested or not shown. An excerpt. The share of hits here may be higher or lower than overall.

Results follow in this order: Rango-impB inh | Rango release inh | miR-21 FLuc | GLA inh pH 4.5
C=C1CCN(c2ccc(C(=O)NCc3ccccc3)cc2[N+](=O)[O-])CC1
→ -3.3% | -22% | 1% | .
CN1C(=O)/C(=C/c2ccc(OC(=O)c3ccco3)cc2)SC1=S
→ 3.6% | -12% | -5% | .
CCOc1ccc(C=NNC(=O)c2cccc3ccccc23)cc1OCC
→ -2.8% | 24% | . | .
CSC(=NC#N)N1CCN(c2cccc(Cl)c2)CC1
→ 1.6% | -12% | -2% | -5
CSC(=NC(C)c1ccccc1)NS(=O)(=O)c1cccs1 (stereo unspecified)
→ 0.2% | 14% | -8% | -15
Fc1cccc(F)c1[B-](F)(F)F
→ 3.7% | -1% | . | .
CCN1CCN(CCCNC(=O)C2CCN(c3nnc(-n4cccc4)s3)CC2)CC1
→ 3.5% | -9% | -6% | .
COC(=O)c1ccc(CSc2nnc(NC(C)C)s2)cc1
→ -3.6% | -7% | -11% | 8
Cc1ccc(C(=O)O)cc1NC(=O)Nc1ccc2c(c1)OCO2
→ 0.7% | 2% | -37% | 0
COc1ccc(NC(=O)CCc2c(C)nc3nc(CNC(=O)c4cccc(F)c4)nn3c2C)cc1OC
→ -2.5% | 16% | -3% | .
Nn1c(SCc2cccc(Br)c2)nnc1-c1ccncc1
→ -0.6% | 3% | -9% | 1
CN(Cc1cccc(F)c1)C(=O)c1cc(S(=O)(=O)N2CCOCC2)ccc1N1CCCC1
→ 0.0% | 15% | . | .
Cc1cc(C=O)c(C)n1-c1cc(C(F)(F)F)ccc1N1CCOCC1
→ -3.4% | 12% | 2% | 9
O=C(Nc1ccccc1O)c1ccc(C(=O)c2ccccc2)o1
→ -2.6% | -14% | -43% | .
Cc1ccc(-c2n[nH]c(=O)c3ccccc23)cc1N
→ 1.0% | -1% | -6% | 6
Cc1nn(CC(=O)N2CCOCC2)c(=O)c2c1sc1ccccc12
→ ? | ? | -1% | .
COC(=O)[C@H](Cc1ccc(O)cc1)NC(=O)Cn1cnc2c(NCc3ccccc3)ncnc21
→ -0.3% | 7% | . | .
COc1ccc(NC(=O)c2ccc(F)c(F)c2)c2ccccc12
→ 6.5% | -13% | 0% | .
CCOc1cccc2sc(NC(=O)c3ccc(Br)s3)nc12
→ -3.3% | -20% | -4% | -2
COc1ccc(/C=C(/NC(=O)c2ccco2)C(=O)N2CCCC2=O)cc1
→ 3.7% | 14% | -2% | 3
Cc1cc(C)n(-c2ccc(C(=O)Nc3sccc3C(N)=O)cc2)n1
→ 0.0% | 7% | -18% | 7
Cc1cc(NCCCO)n2nc(-c3cccs3)cc2n1
→ 0.7% | 14% | 0% | 5
COC(=O)c1ccccc1NC1=C/C(=N\S(=O)(=O)c2ccc(C(=O)O)cc2)c2ccccc2C1=O
→ -0.4% | -4% | ? | .
CCCCn1c(N)c(N(CC(C)C)C(=O)c2cc(Br)c(Br)s2)c(=O)[nH]c1=O
→ -0.8% | 19% | . | .
O=[N+]([O-])c1cccc(COc2cccc(CN3CCCC3)c2)c1
→ 4.8% | -8% | . | .
CC(=O)c1cccc(S(=O)(=O)N2CCC(C(=O)Oc3ccc(-c4nnco4)cc3)CC2)c1
→ -1.5% | -9% | . | .
CCn1nc(C)c(Br)c1-c1nc(-c2ccc(C)cc2)no1
→ 0.1% | -6% | -1% | -2
O=C(NCc1cccs1)C(=O)NCC1OCCCN1S(=O)(=O)c1ccc(F)cc1 (stereo unspecified)
→ -1.7% | 6% | -4% | -2
COc1cc(C(=O)OC(C)C(=O)Nc2ccc3c(c2)OCO3)ccc1OCc1c(C)noc1C (stereo unspecified)
→ -4.1% | -1% | -8% | 1
N#CC(c1nc2ccccc2nc1OCCO)S(=O)(=O)c1ccccc1 (stereo unspecified)
→ ? | -26% | -1% | -2
Cc1ccc(/C=N/n2c(C)nnc2C)o1
→ 1.8% | -12% | 4% | 2
Cc1cccc2sc(N(CCN(C)C)C(=O)c3cc(Cl)sc3Cl)nc12
→ 2.5% | 21% | -9% | -12
CCCCn1c(SCC(=O)N2CCOCC2)nc2c1c(=O)n(C)c(=O)n2C
→ 0.2% | 3% | 4% | .
CCN(CC)C1CCN(C(=O)CCc2nnc(CCc3ccccc3)o2)C1 (stereo unspecified)
→ 0.3% | -6% | -6% | -5
CCC(C)Nc1nc(N)c([N+](=O)[O-])c(Nc2ccccc2OC)n1 (stereo unspecified)
→ -1.7% | 12% | -8% | ?
COc1ccc(C)cc1S(=O)(=O)N1CC(C)OC(C)C1 (stereo unspecified)
→ -2.1% | -15% | -24% | 10
O=C(N/N=C/c1ccc2nccnc2c1)c1cccc([N+](=O)[O-])c1
→ -2.0% | -9% | 3% | -3
CCOP(=O)(OCC)/C(C#N)=C(\O)c1ccc(OC)cc1
→ -3.4% | 33% | -4% | 5
O=C1N(Cc2cccc(Cl)c2)C[C@@H]2C[C@@H](c3c[nH]c4ccccc34)N3CCC[C@@]123
→ -3.3% | -14% | -3% | -6
COc1c(C)cccc1C(=O)NCCCNC(=O)c1ccc(C)nc1
→ -4.1% | 0% | 0% | .
CCCCN(C(=O)CNC(=O)c1ccco1)C(C(=O)NC1CCCC1)c1ccc(OC)cc1 (stereo unspecified)
→ -0.6% | -5% | -6% | 3
CC(Sc1nncn1C)C(=O)Nc1nnc(C(C)C)s1 (stereo unspecified)
→ -0.7% | 1% | -6% | 7
NC(=O)C1=CN(Cc2ccc(Cl)cc2)CCC1C(F)(F)F (stereo unspecified)
→ -0.1% | -2% | -7% | 1
C[C@H]1CCC(=O)N([C@H](CSc2ccc(Br)cc2)Cc2ccccc2)CC1
→ 0.6% | -14% | . | .
CC(C)(C)c1ccc(C(=O)CS(=O)(=O)c2ccccc2)cc1
→ 0.8% | 1% | -42% | 2
Cc1cccn2c(=O)c3cc(C(=O)NC4CCCCC4)n(C)c3nc12
→ -3.4% | 9% | -2% | .
COc1cc([N+](=O)[O-])ccc1NC(=O)NCc1ccccn1
→ 1.8% | -4% | -7% | .
CN(Cc1ccccc1)C(=O)c1[nH]cnc1C(=O)Nc1cccc(Cl)c1
→ 1.8% | 0% | . | .
COc1cc(C(=O)O)ccc1Cl
→ -1.7% | -24% | -4% | 1
O=c1oc2ccccc2c(O)c1/C=N/c1ncccn1
→ 0.3% | 3% | -5% | 0
CSc1ccc(CN2CCC(n3nccc3NC(=O)c3ccccc3C)CC2)cc1
→ 0.0% | -3% | 7% | .
Cc1ccc(-n2c(C)c(C)c3c(NCCCO)ncnc32)cc1
→ 1.2% | 1% | -80% | .
O=C(NCc1ccc(F)cc1)C(c1ccccc1)N(C(=O)c1csnn1)C1CCCC1 (stereo unspecified)
→ -1.5% | -9% | 2% | .
Cc1cc(C)cc(NC(=O)CSc2ccc(-c3ccco3)nn2)c1
→ -0.8% | 1% | 4% | 0
CN(c1ccccc1)c1nc2ccsc2c(=O)s1
→ -1.0% | 5% | -75% | -3
CC1CCCN(C(=O)c2ccc3c(=O)n(Cc4ccc5c(c4)OCO5)c(=S)[nH]c3c2)C1 (stereo unspecified)
→ -2.9% | 1% | -3% | 9
CN(Cc1ccccc1)C1=CC(=[N+]2CCCC2)CC(C)(C)C1
→ 2.8% | 0% | ? | 8
COc1ccc(-n2c(SCC(=O)Nc3ncc(Cl)cc3Cl)nc3ccccc32)cc1
→ . | . | 16% | -5
O=C(Nc1ccc2c(c1)CCC2)c1cccc(OC(F)F)c1
→ 0.1% | -1% | . | .
CCn1ccc(C(=O)Nc2ccc(S(=O)(=O)Nc3ccccc3OC)cc2)n1
→ -0.8% | -8% | 14% | -7

Additional structures:
Results follow in this order: Rango-impB inh | Rango release inh | miR-21 FLuc | GLA inh pH 4.5
CC(C)(C)c1cc(C(=O)Nc2ccccc2)ccn1
→ 0.6% | -7% | -29% | 0
CCOc1ncccc1C(=O)Nc1cc(S(=O)(=O)N2CCOCC2)ccc1OCC(F)(F)F
→ 0.1% | 5% | . | .
CN1CCN(S(=O)(=O)NC[C@H]2O[C@@H](n3cnc4c(N)ncnc43)[C@H](O)[C@@H]2O)CC1
→ -0.4% | 19% | . | .
CC(C)Oc1ccc(CN2CCC(n3nccc3NC(=O)c3cccnc3)CC2)cc1
→ -4.2% | 2% | 8% | .
COC(=O)Cc1ccc(NC(=S)NCCO)cc1
→ 1.8% | -6% | -1% | -19
CCOC(=O)C1C(c2ccccc2)C(C(=O)OCC)C1c1ccccc1 (stereo unspecified)
→ -1.9% | 1% | 2% | -5
CNc1ncc(C(=O)C(C)(C)C)s1
→ -0.5% | 9% | -9% | -28
Cc1ccc(Cl)cc1NC(=O)COC(=O)CC1CCCCC1
→ -2.1% | -17% | . | .
COCCNc1nc(-c2ccccc2)nc2ccccc12
→ 6.7% | -1% | -1% | 1
Cc1ccnc(NC(=O)Nc2ccc3c(c2)OCO3)c1
→ 2.8% | 7% | -55% | 3
Cc1cc(N=NC(=O)c2ccccc2O)c2ccccc2c1O
→ -0.3% | 9% | -25% | -17
CC(C)(C)NC(=O)COC(=O)c1ccc(NC(=O)CC#N)cc1
→ -1.3% | -16% | 5% | -5
COC(=O)C1C(=O)C2=C(CC1C)Nc1ccccc1NC2c1cccs1 (stereo unspecified)
→ 3.0% | -14% | 0% | -15
Cc1ccccc1CSc1nnc(C)c(=O)[nH]1
→ 0.0% | 1% | -8% | 7
COCCNC(=O)c1ccccc1-c1nc(-c2ccccc2Cl)no1
→ -0.3% | 9% | -13% | 2
CCOc1ccc(/C=C2\SC(=S)N(NS(=O)(=O)c3ccc(C)cc3)C2=O)cc1OC
→ 1.7% | 5% | -3% | -7
CN(C(=O)C1CCOC1)c1nnc(-c2cccnc2)s1 (stereo unspecified)
→ -0.5% | 9% | -16% | -2
CC(=O)c1ccc(NC(=O)c2ccc3c(Cl)c4c(nc3c2)CCCC4)cc1
→ 0.3% | 5% | -7% | -6
CCOC(=O)C1CCCCN1C(=O)/C(=C/c1ccc(OC)cc1)c1ccc(OC)c(OC)c1 (stereo unspecified)
→ -2.4% | 2% | . | .
Cn1nnnc1SCC(=O)NNC(=O)c1ccc(Br)cc1
→ -2.6% | 2% | -1% | 3
Nc1ccccc1C(=O)NNC(=O)C(=O)/C=C(\O)c1ccccc1
→ -0.2% | 5% | -32% | -5
COc1cc(CN(C)Cc2cc(=O)oc3cc(C)c(Cl)cc23)ccc1OC(F)F
→ 0.1% | 7% | -10% | .
O=C(CCNS(=O)(=O)c1ccccc1F)NC1CCCCCC1
→ 2.3% | 10% | . | .
COc1ccc(S(=O)(=O)N2CCC3(CC2)CC(=O)c2ccccc2O3)cc1
→ 3.0% | 9% | . | .
Cc1ccc(C)c(OCC(=O)Nc2cccc(S(=O)(=O)NC3=NCCCCC3)c2)c1
→ 0.5% | 0% | 10% | .
O=c1c2ccccc2nc(/C=C/c2ccc(Br)cc2)n1CCCO
→ ? | ? | -11% | .
Cc1ccc(NC(=O)c2ccccc2NS(=O)(=O)c2ccc(Cl)s2)cc1
→ 0.2% | -4% | ? | -4
CC(OC(=O)Cn1cnc2c1c(=O)n(C)c(=O)n2C)C(=O)NC1(C#N)CCCCC1 (stereo unspecified)
→ 3.2% | 2% | . | .
Nc1nnc(SCC(=O)NNC(=O)c2ccccc2)s1
→ 4.2% | 17% | . | .
CCc1cc(-c2nc(N)ncc2-c2csc(C)n2)c(O)cc1OC
→ 0.0% | 17% | -19% | 3

Three structures already listed, sorted by heavy-atom count, highest first.
Results follow in this order: Rango-impB inh | Rango release inh | miR-21 FLuc | GLA inh pH 4.5
COc1ccc(S(=O)(=O)N2CCC3(CC2)CC(=O)c2ccccc2O3)cc1
→ 3.0% | 9% | . | .
Cc1cc(N=NC(=O)c2ccccc2O)c2ccccc2c1O
→ -0.3% | 9% | -25% | -17
CN(C(=O)C1CCOC1)c1nnc(-c2cccnc2)s1 (stereo unspecified)
→ -0.5% | 9% | -16% | -2

Next section.
Results follow in this order: Rango-impB inh | Rango release inh | miR-21 FLuc | GLA inh pH 4.5
C=CCn1c(SCCC)nc2sc3c(c2c1=O)CCc1ccccc1-3
→ 0.7% | 0% | -7% | 0
O=C(CCCN1C(=O)C2CC=CCC2C1=O)Nc1ccccc1Cl (stereo unspecified)
→ 0.0% | 1% | -11% | .
O=C(NCc1ccccc1)c1cc(=O)nc2sc(-c3ccccc3)nn12
→ 5.1% | -4% | -1% | -7
CCN(c1ccccc1)S(=O)(=O)c1ccc(C(=O)Nc2nnc(C3CC3)o2)cc1
→ -2.1% | -7% | ? | -6
